Source: PubChem BioAssay
NOMO-1 viab = STK33 inhibitor candidate reducing NOMO-1 cell viability. hit rate 7.5% among 37,000. inhibition, % (no concentration beside the values). NOMO-1 AML viability, CellTiter-Glo luminescence, 72 h;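 active = most replicates above 80%; inconclusive = exactly half above 80%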;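 also: wells of about 30 µL received 25 nL stock; 0% = median of vehicle wells and 100% = reference inhibitor level; the first replicate is given; inactives centre near 10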
The depositor's hits bear a star; ? = inconclusive. Not all compounds are listed, so the mix of outcomes need not match the whole.

No.	SMILES	NOMO-1 viab
1	COCc1cc(OC(=O)N(C)C)nc(-c2ccncc2)n1	22
2	COc1cc(C(=O)O[C@H]2[C@@H]3C=CO[C@@H](O[C@@H]4O[C@H](CO)[C@@H](O)[C@H](O)[C@H]4O)[C@@H]3[C@@]3(CO)O[C@@H]23)ccc1O	-14
3	O=c1c2ccccc2[nH]c(=S)n1-c1cc(C(F)(F)F)cc(C(F)(F)F)c1	4
4	Cc1cc(Br)c(NC(=O)C2C(C)(C)C2(C)C)c(Br)c1	89*
5	CNC(=O)N(C)c1nnc(C(C)(C)C)s1	-19
6	CCOC(=O)C1=C(N)Oc2c(c(=O)oc3ccccc23)C12C(=O)N(CC(=O)OC)c1ccccc12 (stereo not given)	6
7	CC(C)N(C(=O)SCC(Cl)=C(Cl)Cl)C(C)C	10
8	CC(=O)O[C@H]1C[C@H](O[C@H]2[C@@H](O)C[C@H](O[C@H]3[C@@H](O)C[C@H](O[C@H]4CC[C@@]5(C)C(CCC6C5C[C@@H](O)[C@]5(C)[C@@H](C7=CC(=O)OC7)CC[C@]65O)C4)O[C@@H]3C)O[C@@H]2C)O[C@H](C)[C@H]1O[C@@H]1O[C@H](CO)[C@@H](O)[C@H](O)[C@H]1O (stereo not given in full)	107*
9	c1ccc2c(c1)cc1ccc3cccc4ccc2c1c34	28
10	OC(Cc1ccncc1)C(Cl)(Cl)Cl (stereo not given)	-5
11	C=CCC1(C(C)CCC)C(=O)NC(=S)NC1=O (stereo not given)	18
12	Cc1nn(Cc2cccc(C(=O)Nc3ccc4oc(=O)cc(C(F)(F)F)c4c3)c2)c(C)c1Cl	37
13	COC1CC(OC2CCC3(C)C(CCC4(O)C3CC(OC(=O)c3ccccc3)C3(C)C(O)(C(C)=O)CCC43O)C2)OC(C)C1OC1CC(OC)C(OC2OC(C)C(O)C(OC)C2O)C(C)O1 (stereo not given)	32
14	CN1C2C[C@H](OC(=O)[C@H](CO)c3ccccc3)C[C@H]1[C@@H](O)C2	-3
15	C=CC(C)(C)[C@@]12C[C@H]3C(=O)N/C(=C\c4cnc[nH]4)C(=O)N3[C@@H]1Nc1ccccc12	3
16	NCC(=O)Nc1ccc(Br)cc1C(=O)c1ccccc1	4
17	CCCCC/C=C\C/C=C\C/C=C\CCCCCCC(=O)NCCO	9
18	Cc1ccnc(NC(c2ccccc2[N+](=O)[O-])c2ccc3ccc(C)nc3c2O)c1 (stereo not given)	124*
19	O=C(CC[N+](=O)[O-])OC[C@H]1O[C@@H](O)[C@H](OC(=O)CC[N+](=O)[O-])[C@@H](OC(=O)CC[N+](=O)[O-])[C@@H]1OC(=O)CC[N+](=O)[O-]	106*
20	COc1ccc2c(c1O)-c1c(OC)c(OC)cc3c1[C@H](C2)N(C)CC3	-2
21	CO[C@H](C)C(O)(C(=O)OCC1=CCN2CC[C@H](O)[C@@H]12)C(C)C (stereo not given in full)	-7
22	C=C1[C@@]23C(=O)O[C@H](C)[C@]24O[C@@]2(C(=C)[C@]5(C=CC(=O)OC5(C)C)CC[C@]32C)[C@H](O)[C@@]1(C)OC4=O	9
23	CC12CCC3C(CC=C4CC(O)CCC43CO)C1CCC2OC(=O)c1ccccc1 (stereo not given)	66
24	CC1(C)C(=O)C=C[C@@]2(C)C1C(=O)C(=O)[C@]1(C)C2CC[C@@]2(C)[C@H](c3ccoc3)C[C@H]3O[C@]321 (stereo not given in full)	108*
25	c1cncc(C2N=C(c3cnccn3)NN2)c1 (stereo not given)	-4
26	COc1ccc(CC2(CCc3ccccn3)C(=O)NC(=O)N(c3ccccc3C)C2=O)cc1OC (stereo not given)	-2
27	CC(CO)NC(=O)C1C=C2c3cccc4[nH]cc(c34)CC2N(C)C1 (stereo not given)	15
28	O=C(O)C1C2CCC(O2)C1C(=O)Nc1ccc(Cl)cc1 (stereo not given)	42
29	O=c1c2ccccc2[nH]c(=S)n1-c1ccc(Cl)c(Cl)c1	29
30	C=C1C([C@]2(C)C(CC(=O)OC)[C@@](C)(COC(C)=O)OC(=O)C[C@@H]2OC(C)=O)[C@@H](OC=O)[C@H](OC(=O)C(OC(C)=O)C(C)CC)[C@@]2(C)[C@H](c3ccoc3)CC(=O)C12O (stereo not given in full)	-3

Next part (2 carried over from the part before).
No.	SMILES	NOMO-1 viab
29	O=c1c2ccccc2[nH]c(=S)n1-c1ccc(Cl)c(Cl)c1	29
30	C=C1C([C@]2(C)C(CC(=O)OC)[C@@](C)(COC(C)=O)OC(=O)C[C@@H]2OC(C)=O)[C@@H](OC=O)[C@H](OC(=O)C(OC(C)=O)C(C)CC)[C@@]2(C)[C@H](c3ccoc3)CC(=O)C12O (stereo not given in full)	-3
31	CCCN(CCC)CCc1ccc(O)c(O)c1	-3
32	CC(C)[C@@]1(NC(=O)[C@@H]2CC3c4cccc5[nH]cc(c45)C[C@H]3N(C)C2)O[C@@]2(O)[C@@H]3CCCN3C(=O)[C@H](Cc3ccccc3)N2C1=O (stereo not given in full)	?
33	c1ccc2c(N3CCNCC3)cccc2c1	17
34	O=C1CC=C2C3CC4N(CCC45c4ccccc4N1C25)C/C3=C/CO (stereo not given)	7
35	CC(=O)Nc1ccc(Cc2ccc(NC(C)=O)cc2)cc1	25
36	c1ccc(C2CC2)c(OCC2=NCCN2)c1	6
37	CCc1ccc(CN2CCN(Cc3cccc(OC)c3)CC2)cc1	26
38	COc1ccc2c(c1)[nH]c1c(C)nccc12	69
39	CN1C(=O)c2ccccc2NC(=O)C1Cc1ccccc1 (stereo not given)	10
40	C=C(C)[C@H]1O[C@H]2CC[C@@]3(C)[C@@](O)(CC[C@H]4[C@@H]5OC(C)(C)[C@H]6C[C@@H]7C(=C)Cc8c(Cl)cc9[nH]c(c5c9c8[C@@]76O)[C@@]43C)[C@]23O[C@@H]3[C@H]1O	116*
41	O=C(O)C1C2CCC(O2)C1C(=O)NCCc1ccccc1 (stereo not given)	69
42	CC(=O)NC1C(OC2OC(CC(O)C3OC(n4ccc(=O)[nH]c4=O)C(O)C3O)C(O)C(O)C2NC(=O)/C=C/CCCCCCCCCC(C)C)OC(CO)C(O)C1O (stereo not given)	108*
43	Cc1cccc(C)c1OC(=O)Cc1ccccc1	35
44	CCCN(CCC)C1CCc2ccc(O)cc2C1 (stereo not given)	32
45	CCN1CC2(COC)CCC(O)C34C5CC6C(OC)CC(O)(C5C6O)C(C(OC)C23)C14 (stereo not given)	1
46	C/C=C(/C)C(=O)OC1CCN2CC=C(COC(=O)C(O)(C(C)O)C(C)(C)O)C12 (stereo not given)	4
47	Nc1ncnc2nc(SCc3nc4ccc(I)cc4c(=O)n3-c3ccccc3)[nH]c12	3
48	COc1ccc(Cl)cc1NC1=NCC(C)S1 (stereo not given)	-21
49	CC=C1CN2C3CC1C1(C(=O)OC)C2CC2(c4ccccc4N(C)C32)C1O (stereo not given)	34
50	COc1ccc(OC)c(NC(=O)Cn2cc(C(=O)c3ccccc3)c3ccccc32)c1	50
51	CCOC(=O)CN1C(=O)CC(C[C@@H](O)C2C[C@@H](C)C[C@H](C)C2=O)CC1=O (stereo not given in full)	-10
52	C=CC(C)(C)[C@]12C=C(OC)C(=O)N3/C(=C/c4cnc[nH]4)C(=O)N[C@@]31N(OC)c1ccccc12	101*
53	CC(C)(C)c1nc2ccccc2c(=O)n1-c1ccc(F)cc1F	9
54	C=C1C(=O)O[C@@H]2[C@H]3C(=C)[C@@H](O)C[C@H]3C(=C)C[C@@H](O)[C@@H]12	113*
55	COc1ccc2[nH]cc(CCNCc3ccc(Br)cc3)c2c1	49
56	COc1ccc2c3c4n(c2c1)[C@@H](C=C(C)C)OOC(C)(C)C[C@@H]4N1C(=O)[C@@H]2CCCN2C(=O)[C@]1(O)[C@H]3OCC=C(C)C	56
57	COC(=O)c1ccc(OP2(=O)COc3ccccc3OC2)cc1	6
58	COc1cc(C(=O)OC2C[C@H]3CC[C@@H](C2)N3C)ccc1O (stereo not given in full)	-2
59	CCCCn1c(C)c(C(C)=O)c2c(OCC(=O)O)c(Cl)c(Cl)c(Cl)c21	-7
60	CC(C)N1C(=O)c2ccccc2NS1(=O)=O	3

Some of the entries so far, field by field:
36. c1ccc(C2CC2)c(OCC2=NCCN2)c1
  NOMO-1 viab: 6

31. CCCN(CCC)CCc1ccc(O)c(O)c1
  NOMO-1 viab: -3

New compounds follow
No.	SMILES	NOMO-1 viab
61	C[C@]12C=CC(=O)C=C1CC[C@@H]1C2CC[C@]2(C)C(=O)CCC12 (stereo not given in full)	12
62	COC(=O)CC1=C(C(=O)OC)C2(C(=O)Nc3ccccc32)C(C(=O)OC)=C(N)O1 (stereo not given)	16
63	COc1cc2c3cc1Oc1cc(ccc1O)C[C@@H]1c4c(cc(OC)c(O)c4Oc4cccc(c4)C[C@@H]3N(C)CC2)CC[N+]1(C)C	24
64	CC[C@@]12CCCN3CC[C@]4(c5cccc(OC)c5N(C(C)=O)[C@@H]4CC1)[C@H]32	22
65	O=P1(Nc2ccc(F)cc2)COc2ccccc2OC1	17
66	CCc1nc2ccccc2c(=O)n1-c1ccccc1Cl	104*
67	NC(N)=NC(N)=Nc1ccc(Cl)cc1	6
68	CC(C)c1cc2c(cc1O)[C@@]1(C)C[C@@H](O)CC(C)(CO)C1CC2 (stereo not given in full)	18
69	CN1Cc2c(ccc3c2OCO3)C2C(O)Cc3cc4c(cc3C21)OCO4 (stereo not given)	104*
70	C=CC1CN2CCC3(C(=O)Nc4ccccc43)C2CC1/C(=C/OC)C(=O)OC (stereo not given)	30
71	CCC(CO)(C(=O)OC1CC2CCC(C1)N2C)c1ccccc1 (stereo not given)	-30
72	CC(C)(C)NC[C@H](O)COc1cccc2[nH]c(C#N)cc12	1
73	CC(Cc1ccccc1)[n+]1cc(/N=C(\N)[O-])on1 (stereo not given)	14
74	COc1ccc(CC2(CCc3ccncc3)C(=O)NC(=O)N(c3ccc(Cl)cc3)C2=O)cc1OC (stereo not given)	-28
75	CCN1C[C@]2(COC)CC[C@H](O)[C@]34C1[C@H](C[C@H]23)[C@@]1(O)C[C@H](OC)[C@H]2C[C@@H]4[C@@H]1[C@H]2OC(C)=O	7
76	COC1=C[C@@H]2[C@@H]3Cc4ccc(OC)c(O)c4[C@]2(CCN3C)CC1=O	-8
77	CC(/C=C/[C@@]1(C)[C@H](C)CCC(=O)[C@@H]1C)=C\Cc1c(O)c(Cl)c(C)c(C=O)c1O	112*
78	Cn1cnc(-n2oo2)c1C#N	19
79	COc1cc(CNCCc2c[nH]c3ccccc23)c([N+](=O)[O-])cc1OC	5
80	OC1CCCCC1N1CCC(c2ccccc2)CC1 (stereo not given)	-1
81	Cc1nccc2c1[nH]c1ccccc12	-3

5 compounds picked at random from those above:
No.	SMILES	NOMO-1 viab
53	CC(C)(C)c1nc2ccccc2c(=O)n1-c1ccc(F)cc1F	9
72	CC(C)(C)NC[C@H](O)COc1cccc2[nH]c(C#N)cc12	1
62	COC(=O)CC1=C(C(=O)OC)C2(C(=O)Nc3ccccc32)C(C(=O)OC)=C(N)O1 (stereo not given)	16
10	OC(Cc1ccncc1)C(Cl)(Cl)Cl (stereo not given)	-5
13	COC1CC(OC2CCC3(C)C(CCC4(O)C3CC(OC(=O)c3ccccc3)C3(C)C(O)(C(C)=O)CCC43O)C2)OC(C)C1OC1CC(OC)C(OC2OC(C)C(O)C(OC)C2O)C(C)O1 (stereo not given)	32

Gathered by group, the compounds so far containing fluorine
No.	SMILES	NOMO-1 viab
3	O=c1c2ccccc2[nH]c(=S)n1-c1cc(C(F)(F)F)cc(C(F)(F)F)c1	4
12	Cc1nn(Cc2cccc(C(=O)Nc3ccc4oc(=O)cc(C(F)(F)F)c4c3)c2)c(C)c1Cl	37
53	CC(C)(C)c1nc2ccccc2c(=O)n1-c1ccc(F)cc1F	9
65	O=P1(Nc2ccc(F)cc2)COc2ccccc2OC1	17
